# Autofluor counter – counter-screen for toxin protease inhibitors: compound fluorescence. compound autofluorescence counterscreen, microsphere flow cytometry; stronger effect = higher value. fluorescence intensity (test concentration not listed). hit rate 3.1% among 360,000. AID 624483;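 active = at least 3 SD above the mean of all compounds, about 16000 in these data; inconclusive = too few beads counted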;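 note: 100 nL of 1 mM stock went into each well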
# ugtP null kill – growth inhibition of ugtP-null S. aureus, primary screen, RN4220 ugtP deletion, OD600; 16 h; some inactives read as strong as hits; growth inhibition, % (concentration not given with the values); hit rate 0.54% among 330,000; AID 1259309, 2017;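 active = z-score under -3 and OD600 up to 0.15 on both plates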;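 note: plate controls were untreated wells for no effect and antibiotic for full effect; wells of about 80 µL received 100 nL stock; the first replicate is given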
# Mtb hypoxia inh – PubChem AID 1159583; M. tuberculosis hypoxia-regulated fluorescent reporter, fluorescence; fluorescence inhibition, % (no concentration beside the values); hit rate 0.1% among 300,000;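 active = 35 to 45% if threefold the growth effect, above 45% if 1.5-fold the growth effect; inactive = the rest, general growth blockers included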;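 note: wells of about 50 µL received 100 nL stock; 0% = vehicle wells and 100% = reference inhibitor wells; whole bacteria with a GFP reporter of the hypoxia response; strong numbers were not always called active; many hits fall short of the cut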
# Sa RN4220 lethal – growth inhibition of S. aureus RN4220, primary screen, OD600; hit rate 0.33% among 330,000; 16 h; inhibition, % (concentration not given with the values);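 active = z-score of -3 or lower and OD600 up to 0.18 on both plates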;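 note: plate controls were untreated cells for no effect and reference antibiotic for full effect; stock transfer was 100 nL into about 80 µL; one replicate is shown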
# BJeLR viability – MLPCN primary cell-based screen for lethality selective to Ras in HRASV12 cells; hit rate 0.17% among 300,000; BJeLR (HRASV12) viability, CellTiter-Glo ATP luminescence, 48 h; reference of the scale not given here; AID 1554, 2009; inhibition, % (concentration not given with the values);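 active = replicate mean above 50%; inconclusive = above 50% but judged a plate artefact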;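 note: 50 nL library stock added to about 25 µL; numbers are from one replicate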
# PrP UTR inh – inhibition of PrP 5' UTR reporter expression. inhibition, % (no concentration beside the values). hit rate 0.35% among 340,000. AID 488862, 2010. cell-based PrP 5' UTR mRNA reporter, plate reader;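 active = every replicate at 50% or more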;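 note: 0 = median of the neutral control wells; tested in H4 reporter cells; numbers are from one replicate; inactives centre near -14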
# Mtb hypoxia inh growth – also measured in Mtb hypoxia inh; calls as there; growth inhibition, %; measured here: M. tuberculosis growth (absorbance);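 0% = vehicle and 100% = reference antibiotic; read after six days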
# Active calls of the source: *; ? = inconclusive; nt = not tested or not shown. Compounds were not picked by outcome, and some 4% of all compounds hit somewhere here.
SMILES,Autofluor counter,ugtP null kill,Mtb hypoxia inh,Mtb hypoxia inh growth,Sa RN4220 lethal,BJeLR viability,PrP UTR inh
N/C(CCS(=O)(=O)c1ccc(Cl)cc1)=N\OC(=O)c1ccccc1Cl,?,2,15,4,5.6,3,-17
O=C(NCc1ccccc1)C1CCN(C(=O)Cc2ccccc2)CC1,6284,nt,nt,nt,nt,2,-17
CC1CCC(NC(=O)c2ccc3nc[nH]c3c2)CC1 (configuration not stated),3080,-3,3,10,0.3,-2,-26
COc1ccccc1C(=O)NCCC(=O)N1CC(C)OC(C)C1 (configuration not stated),?,4,-2,1,1.2,nt,-13
COCCNC(=O)CN1C2CCC1CC(O)(c1cccnc1)C2 (configuration not stated),3510,10,15,5,1.2,-6,-45
Cc1ccccc1OCc1nnc(SCC(=O)N2c3ccccc3Sc3ccc(Cl)cc32)o1,20211*,-11,7,9,2.8,-4,-13
O=C(Cc1ccc(Cl)cc1Cl)NCc1cccnc1,4216,2,14,4,1.3,-2,-19
CCOC(=O)NC(CC(=O)O)c1ccc(OC)c(OC)c1 (configuration not stated),16400*,6,7,-2,3.2,-5,-14
COCCn1c(-c2ccco2)nc2nc3ccccc3nc21,2588,-11,16,22,-16,0,-10
Cc1ccc(Cl)cc1N1CCN(S(=O)(=O)c2c(C)noc2C)CC1,4979,-8,12,-3,10,1,-17
O=C(O)c1cc(-c2ccc(C=NNc3ccc(Cl)cc3)o2)ccc1Cl,nt,34,3,3,53,nt,nt
Cc1sc2ncnc(N3CCC(C(=O)NNC(=O)c4ccc(Cl)cc4)CC3)c2c1C,5544,-2,1,2,-3.4,-12,-8
CC(C)n1c(=S)[nH]c2ccccc21,4249,-1,nt,nt,0.3,4,-2
CCCn1nc(NS(=O)(=O)c2ccccc2)c2cc3ccccc3nc21,8243,0,6,9,2.4,-10,-30
O=C(Nc1nccs1)c1ccc(Cl)nc1,3886,-6,-9,0,2.6,19,-41
CC1(C)Cc2ccccc2C(=C(C#N)C#N)N1,2603,2,7,0,1.6,3,-5
COc1cc(NC(=O)c2cc3cccc(OC)c3o2)cc(C(=O)Nc2cccc(C(F)(F)F)c2)c1,4376,9,4,2,0.9,11,-15
Cc1onc(-c2ccccc2)c1C(=O)NNC(=O)c1ccccc1Br,4223,-5,2,-5,-0.4,nt,nt
COC(=O)c1cc(S(=O)(=O)NCc2ccccc2OC)cn1C,4056,0,11,0,-0.5,8,5
COc1ccccc1OCc1nnc(SCC(=O)N2CCCCC2)n1-c1ccccc1,8347,5,17,15,5.2,-2,-23
O=C1OC(c2ccc3ccccc3c2O)(c2ccc3ccccc3c2O)c2ccccc21,3625,34,5,7,41,nt,6
COc1cc(-c2nnc(COC(=O)CSc3cc(C)c4ccccc4n3)o2)cc(OC)c1OC,3892,1,17,8,7.6,-3,-19
Cn1cc(CN2C[C@]3(C)C[C@H]2CC(C)(C)C3)c(-c2ccc3c(c2)OCCO3)n1,5386,-3,4,-1,-1.1,4,-29
Cc1ccccc1OCC(=O)Nc1ccc(N2CCN(C(=O)c3ccco3)CC2)cc1,5705,3,7,0,2.0,6,-27
CCCCNC(=O)[C@H](Cc1c[nH]c2ccccc12)NC(=O)c1ccccc1Cl,2055,2,0,5,4.5,-8,-13
COC(=O)c1sccc1-n1cc(C#N)c(=O)n(C)c1=O,5535,-3,-8,-3,2.8,1,-24
CCOC(=O)c1cc(CC)sc1NC(=O)c1ccc(N2CCOCC2)c([N+](=O)[O-])c1,19127*,0,-3,5,5.3,-22,-10
O=C(CCn1c(=S)[nH]c2ccccc2c1=O)NCC1CCCO1 (configuration not stated),21058*,0,-3,12,0.1,-7,-6
COc1ccccc1N(C)S(=O)(=O)c1ccc(C(=O)NCC(C)C)cc1,5909,-2,-2,14,2.0,-6,3
COCCC(=O)N1CCC(Oc2ccc(C(=O)NCCCC3CCCC3)cc2)CC1,7458,4,5,7,-0.8,4,-5

# One compound at a time, from the list above:
# CCCn1nc(NS(=O)(=O)c2ccccc2)c2cc3ccccc3nc21 is listed as Autofluor counter = 8243; ugtP null kill = 0; Mtb hypoxia inh = 6; Mtb hypoxia inh growth = 9; Sa RN4220 lethal = 2.4; BJeLR viability = -10; PrP UTR inh = -30
# O=C(Nc1nccs1)c1ccc(Cl)nc1 is listed as Autofluor counter = 3886; ugtP null kill = -6; Mtb hypoxia inh = -9; Mtb hypoxia inh growth = 0; Sa RN4220 lethal = 2.6; BJeLR viability = 19; PrP UTR inh = -41

# Later entries.
SMILES,Autofluor counter,ugtP null kill,Mtb hypoxia inh,Mtb hypoxia inh growth,Sa RN4220 lethal,BJeLR viability,PrP UTR inh
O=C(CCN1C(=O)c2ccncc2C1=O)Nc1cc(F)ccc1F,3921,4,3,3,9.5,9,-11
Cc1nc2ccccc2c(=O)n1N=Cc1cn[nH]c1-c1ccccc1,nt,-1,15,14,17,nt,nt
Cc1ncc(CN2CCCC(C(=O)Nc3ccc(-c4cccc(F)c4)cc3)C2)n1C (configuration not stated),5908,2,11,3,-6.2,-1,-25
Nc1nc2ccc(C(=O)N3CCCCC3)cc2s1,5920,7,14,6,2.2,2,-22
Cc1c(C)n(Cc2ccccc2)c2ncnc(NN)c12,2963,-4,-9,-1,0.7,-1,-13
O=C(CN1CCCC1)Nc1cccc(Cl)c1Cl,3964,8,7,11,6.7,0,-8
O=C(Nc1cccnc1)c1c(O)c2c(n(Cc3ccccc3)c1=O)CCCC2,3363,-26,9,13,-18,-6,-18
COCC(=O)N(Cc1ccco1)c1nnc(C2CCOC2)s1 (configuration not stated),3202,3,8,4,0.8,-9,-10
O=C(NC1=NCCS1)C12CC3CC(CC(C3)C1)C2,2705,7,-8,2,4.8,13,-18
COc1ccc(OCc2nnc3n2N=C(c2ccc(Br)cc2)CS3)cc1,6648,3,nt,nt,7.7,-9,-14
O=C1NC(=O)C(Sc2ccccc2[N+](=O)[O-])C(=O)N1,3525,0,3,8,2.0,-15,-30
Oc1c(Br)cccc1C=Nc1ncn[nH]1,nt,1,4,1,8.3,nt,nt
CCCc1nc(SCC(=O)Nc2cc(C)on2)c2ccccc2n1,?,1,11,20,4.1,3,-22
CN(CC(=O)Nc1cccc(F)c1)C(=O)c1ccc2c(c1)S(=O)(=O)N=C1CCCCCN12,6199,nt,nt,nt,nt,1,-7
O=C(Cn1ncc2c3ccccc3n(Cc3ccccc3)c2c1=O)NCCCN1CCOCC1,6349,0,-5,-10,2.3,7,-1
O=C(CNC(=O)c1cccs1)N=Nc1c(O)[nH]c2ccc([N+](=O)[O-])cc12,5886,-5,-2,-3,3.5,8,-6
O=C(CSc1oc(-c2cccs2)nc1S(=O)(=O)c1ccc(F)cc1)NCC1CCCO1 (configuration not stated),6375,20,3,6,21,5,9
CCCCC[C@H](O)/C=C/[C@H]1CCC(=O)[C@@H]1CCCCCCC(=O)N1CCCCC1CO (some centres not stated),3768,-1,4,-2,2.2,16,-6
COc1ccc(CC(=O)NNS(=O)(=O)c2ccccc2[N+](=O)[O-])cc1OC,5895,1,7,0,2.1,-8,4
CCC1(C)COC(C)(CC(=O)NNC(=O)Nc2ccccc2)OC1 (configuration not stated),4074,2,-1,5,8.7,2,-13
O=c1nc(N2CCCCCC2)nc(N2CCCCCC2)[nH]1,3038,-1,8,3,0.2,2,-13
CC(OC(=O)c1nsc(Cl)c1Cl)C(=O)NC1CCCCC1 (configuration not stated),5514,4,-2,0,2.5,-5,-9
CCOc1cc(N2CCOCC2)c(OCC)cc1NC(=O)C1CC(=O)N(c2ccccc2OCC)C1 (configuration not stated),3011,8,nt,nt,1.3,nt,-6
O=C(NC1CC1)c1cc(Cl)nc2ccccc12,4220,9,-5,-5,1.0,nt,-14
Cc1cccc(Nc2ccccc2C(=O)O)c1C,5250,-4,2,10,10,-8,-12
COc1cc(/C=N/NS(=O)(=O)c2ccc3ccccc3c2)ccc1OCCN1CCOCC1,7830,nt,nt,nt,nt,4,-7
CCOc1cc(CNCCc2ccc(S(N)(=O)=O)cc2)ccc1OCC(=O)NC(C)(C)C,2442,-4,nt,nt,2.9,7,-12
Cc1cccc2c3c([nH]c12)CCNC3,3934,7,7,9,1.0,8,-24
CCOC(=O)C(=CNc1ccc(Oc2cccnc2)nc1)C(=O)OCC,nt,0,-4,3,4.5,-11,-22
Cc1ccc(C(Sc2ccccc2)C(Cn2cncn2)C(=O)c2ccccc2)cc1 (configuration not stated),?,-2,1,2,-2.7,-3,1

# Quoted at random: four records from the list, in no set order.
SMILES,Autofluor counter,ugtP null kill,Mtb hypoxia inh,Mtb hypoxia inh growth,Sa RN4220 lethal,BJeLR viability,PrP UTR inh
CCCc1nc(SCC(=O)Nc2cc(C)on2)c2ccccc2n1,?,1,11,20,4.1,3,-22
O=C(CN1CCCC1)Nc1cccc(Cl)c1Cl,3964,8,7,11,6.7,0,-8
COCC(=O)N(Cc1ccco1)c1nnc(C2CCOC2)s1 (configuration not stated),3202,3,8,4,0.8,-9,-10
Cc1cccc(Nc2ccccc2C(=O)O)c1C,5250,-4,2,10,10,-8,-12

# More entries
# The line under a structure holds: Autofluor counter | ugtP null kill | Mtb hypoxia inh | Mtb hypoxia inh growth | Sa RN4220 lethal | BJeLR viability | PrP UTR inh
Nc1c(C(=O)NCc2ccco2)sc2nc(N3CCOCC3)c3c(c12)CCCC3
→ 2996 | -3 | nt | nt | 16 | -8 | -26
O=C(Nc1nnc(CCOCCOCCc2nnc(NC(=O)c3ccco3)s2)s1)c1ccco1
→ 12560 | 8 | -2 | 2 | 3.9 | -3 | -35
O=C(CSc1n[nH]c(-c2ccccc2)n1)NC1CCCCC1
→ 5762 | 3 | 5 | -7 | 1.6 | -16 | -7
Cc1nn(-c2ccccc2)c(Cl)c1/C=N/Nc1nnc(C)c(=O)[nH]1
→ 3235 | nt | nt | nt | nt | 3 | -38
Cn1c(=O)n(C)c2cc3[nH]cnc3cc21
→ 3655 | 8 | 7 | 3 | 4.8 | -1 | -16
COc1ccc(CC(=O)OCC(=O)Nc2ccc(Cl)c(S(=O)(=O)N(C)C)c2)cc1
→ 4721 | 0 | 11 | 3 | -2.9 | -3 | 14
COc1ccc(CCNC(=O)COc2cc(O)c3c(c2)OC(C)(C)CC3=O)cc1
→ 4683 | -7 | nt | nt | 1.6 | 10 | -20
COC(=O)c1ccc(C(=S)N2CCCCC2)cc1
→ 3257 | nt | nt | nt | nt | -26 | -6
Cc1nc2c(Cl)c(C)nn2c2c1CCC2
→ 4021 | 7 | 9 | 10 | 13 | 2 | -4
C=CCNC(=O)c1ccccc1NC(=O)c1ccccc1SC
→ 3178 | 1 | 12 | 21 | 5.6 | 3 | -10
Cn1sc(=O)c2cc(S(=O)(=O)NC3CC3)ccc21
→ 3796 | 42 | 6 | 11 | 7.2 | -1 | nt
COc1cccc(CNC(=O)CSc2nc(=O)n(Cc3ccncc3)c3c2CCC3)c1
→ nt | 1 | 0 | -2 | 3.8 | 1 | -6
CC1(C)CC(NC(=O)c2sc3cc(Cl)ccc3c2Cl)CC(C)(C)N1
→ 4898 | -1 | 3 | 3 | 1.0 | 2 | -19
O=c1c2ccccc2nc(-c2ccccc2)n1-c1ccc(O)cc1
→ 4514 | 1 | 6 | 4 | 2.4 | -2 | -30
CCCCN(CCO)CCCC
→ 5222 | 7 | 6 | 3 | 5.0 | nt | -11
O=C(Nc1ccc(Cl)cc1)N1CC=CCC1
→ 2351 | -2 | nt | nt | -1.2 | -1 | -21
CC1=CC(C)(C)N2C(=O)C3(C(C#N)=C(N)Oc4cc(C)oc(=O)c43)c3cc(C)cc1c32 (configuration not stated)
→ 10023 | -1 | 8 | 6 | 2.8 | 2 | -22
Cc1ccc(N(c2ncnc(N)c2[N+](=O)[O-])C2CCCCC2)cc1
→ 23258* | 2 | 7 | 4 | -1.7 | 1 | -30
N#Cc1ccccc1CSc1nc(N)cc(N)n1
→ nt | 12 | 1 | -8 | 6.2 | 5 | -4
Cc1cc(NC(=O)CCC(=O)N(Cc2ccco2)C(C(=O)NC2CCCC2)c2ccccc2F)no1 (configuration not stated)
→ 5441 | 5 | 17 | 6 | 5.7 | 0 | -34

# Compound activity as filed in PubChem.
